High-throughput results from PubChem.
MT1-MMP act inh: blocks activation of human MT1-MMP | HT1080 RFP-PRO-GFP cells, GFP/RFP ratio fluorescence, overnight; percent of plate control window, DMSO zero | P50281 | actives 0.061% (n = 360,000) | AID 651647 | GFP/RFP ratio change, % at 20 µM;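 active means GFP/RFP ratio change of at least 30% with cell ATP level not reduced by more than half and red fluorescence within 50% of control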; further: strong numbers were not always called active
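Assay system – RFP-PRO-GFP reporter HT1080 cells · Compound dosing – single dose of 20 µM compound, 1% DMSO final · Incubation – overnight compound exposure at 37 °C · Measure – GFP/RFP fluorescence ratio · Benchmarks – DMSO wells and RFP-L50D-GFP cells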
Rce1 inhib: yeast Ras-converting enzyme inhibition; yeast membranes, quenched prenylated peptide cleavage fluorescence; Q03530; calls only; actives 0.27% (n = 290,000);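 active means fall in fluorescence gain of 50% or more versus controls, with final raw signal at or below 3038400; inconclusive means same 50% fall but final raw signal above 3038400; inactive means fall in fluorescence gain under 50%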;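 further: plate controls were neutral control wells for no effect and wells lacking membranes for full effect; tested at 10 µM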
Target sequence (Q03530 whole entry, looked up): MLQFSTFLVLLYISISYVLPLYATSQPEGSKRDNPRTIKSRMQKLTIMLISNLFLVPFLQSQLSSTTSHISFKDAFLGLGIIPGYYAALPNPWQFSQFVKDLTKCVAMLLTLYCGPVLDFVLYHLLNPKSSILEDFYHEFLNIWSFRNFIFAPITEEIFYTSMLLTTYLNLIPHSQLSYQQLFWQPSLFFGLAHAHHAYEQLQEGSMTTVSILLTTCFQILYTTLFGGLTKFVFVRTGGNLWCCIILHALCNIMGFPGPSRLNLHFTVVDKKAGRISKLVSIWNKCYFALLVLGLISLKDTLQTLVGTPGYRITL
eIF4H FP inh: inhibitors of RNA binding by human eIF4H | eIF4H fluorescence polarization binding assay | inhibition, % at 35 µM | actives 0.94% (n = 290,000) | Q15056;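 active means 50% or more with normal probe brightness, or confirmed in later tests; inconclusive means above 50% with abnormal brightness, or retests that disagree; inactive means below 50% or failed in later tests; about a fifth of its hits are not listed in these tables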;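 further: calls also rest on retests at 20 µM and on dose response follow-up; 0% = protein and probe with vehicle and 100% = probe without protein; strong numbers were not always called active; many hits fall short of the cut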
Env fusion inh: blocks HIV Env-driven cell-cell fusion. inhibition, % at 12.3 µM. actives 1.1% (n = 360,000). HeLa-JRFL Env/CEM21 cell fusion, luciferase;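 active means mean replicate inhibition score of at least 50 and every replicate individually at or above 50; inconclusive means only one of the two criteria met; inactive means mean below 50 and not all replicates reaching 50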;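 further: 0% = plate neutral controls and 100% = maraviroc near 300 nM; one replicate is shown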
PABP FP inh: blocks human PABP binding to poly(A) RNA; P11940; fluorescence polarization; inhibition, % at 35 µM; actives 1% (n = 290,000); AID 2014;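 active means 50% or more with normal probe brightness, or confirmed in later tests; inconclusive means above 50% with abnormal brightness, or retests that disagree; inactive means below 50% or failed in later tests; about a fifth of its hits are not listed in these tables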;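 further: calls also rest on retests at 20 µM and on dose response follow-up; controls were probe without protein and protein plus probe with vehicle; some compounds called inactive have numbers as strong as hits; many hits fall short of the cut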
Target sequence (P11940 whole entry, looked up): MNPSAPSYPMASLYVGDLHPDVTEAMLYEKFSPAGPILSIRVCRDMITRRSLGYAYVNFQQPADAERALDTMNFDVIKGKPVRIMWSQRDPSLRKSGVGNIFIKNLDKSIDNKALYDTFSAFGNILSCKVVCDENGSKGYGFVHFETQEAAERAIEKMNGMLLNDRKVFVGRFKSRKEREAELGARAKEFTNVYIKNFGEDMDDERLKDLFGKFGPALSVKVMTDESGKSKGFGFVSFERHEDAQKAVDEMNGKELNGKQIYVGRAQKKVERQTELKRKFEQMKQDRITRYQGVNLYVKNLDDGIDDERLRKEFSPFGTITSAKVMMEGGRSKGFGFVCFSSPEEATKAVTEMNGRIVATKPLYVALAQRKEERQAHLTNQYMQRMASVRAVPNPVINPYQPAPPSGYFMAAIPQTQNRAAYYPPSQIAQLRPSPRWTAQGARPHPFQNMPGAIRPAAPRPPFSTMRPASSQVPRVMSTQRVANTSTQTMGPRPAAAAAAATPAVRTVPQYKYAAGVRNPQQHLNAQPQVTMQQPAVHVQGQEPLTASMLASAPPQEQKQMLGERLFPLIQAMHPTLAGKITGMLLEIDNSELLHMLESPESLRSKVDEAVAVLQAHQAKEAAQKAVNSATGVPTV
CSC inhib: cancer stem cell inhibition | cancer stem cell-like cells viability, luminescence | inhibition, % at 7.5 µM | actives 1.1% (n = 300,000);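 active means mean at 75% or more and at least half the replicates too; inconclusive means mean and replicates disagree; tested in HMLE shEcad cells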;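 further: 0% = median of negative and 100% = median of positive control wells; the first replicate is given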
Yeast UUG start: modulators of start codon recognition fidelity in yeast; activity score, % at 18.7 µM; S. cerevisiae UUG-firefly luciferase reporter, luminescence/redox ratio; AID 602363; actives 0.13% (n = 350,000);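 active means replicate mean at a twofold rise or more, about +100% in these data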;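 further: firefly luciferase made from a UUG start codon reports start codon fidelity; reporter light over untreated wells divided by growth signal over untreated wells; some hits fall short of that in this replicate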
eIF4H FP inh retest: further read-out of eIF4H FP inh, marked with its call; inhibition, %; compound at 20 µM; confirmation average;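 mean of two retest wells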
PABP FP inh retest: recorded beside PABP FP inh, whose call it bears; inhibition, %; compound at 20 µM; confirmation repeats;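 mean of two retest wells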
MT1-MMP act inh RFP: further read-out of MT1-MMP act inh, marked with its call; RFP signal change, %; measured here: RFP expression control read;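 0 = vehicle wells; hits needed this value within 50% of zero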
An asterisk follows results filed as active; i = inactive; u = inconclusive; x = no result given.

SMILES | MT1-MMP act inh | MT1-MMP act inh RFP | Rce1 inhib | eIF4H FP inh | Env fusion inh | PABP FP inh | CSC inhib | Yeast UUG start | others
CC1=CC(C)C2(CO)COC(c3ccccc3O)C1C2C (stereo not given) | 2 | 2 | i | 3 | -30 | 4 | -15 | 1
Cc1ccc(NCc2nnc3n2CCCCC3)c(C)c1 | 2 | 5 | i | -3 | 10 | 9 | 6 | x
COc1ccccc1Oc1ccc2c(c1)C(=O)N(c1ccccc1)C2=O | 3 | -8 | i | -3 | 30 | -10 | -10 | -17
CCc1nc2ccc(C(=O)Nc3ccc(OC)c(OC)c3)cn2c1N(C)C(=O)Cc1ccccc1 | -4 | -2 | x | x | 27 | x | x | -18
CC(C)N1CCSC1=S | 0 | 1 | x | x | 6 | x | x | -11
N#C/C(C(N)=O)=C1/CCCN1Cc1ccccc1 | 3 | 5 | i | x | 24 | x | -2 | -16
CCN1CCN(CC(=O)Nc2cc(C)c(C)cc2[N+](=O)[O-])CC1 | 3 | 5 | i | 3 | -20 | 5 | 26 | x
Cc1noc(C)c1C(=O)OCC(=O)c1ccc[nH]1 | -4 | -3 | i | 5 | -129 | 8 | -7 | -23
Cc1ccc(CN2C(=O)N/C(=C/c3ccc(-c4ccc(C(=O)O)cc4)o3)C2=O)cc1 | -1 | -2 | i | 69* | -21 | 46* | -13 | x | eIF4H FP inh retest=97*;PABP FP inh retest=61*
Cc1nn(C)c(Cl)c1CN1CCN(CCC(C)C)C(CCO)C1 (stereo not given) | 8 | 8 | i | 0 | 5 | -6 | 0 | -14
Cc1ccc(CNC(=O)c2ccc(CS(=O)(=O)c3ccccc3C)o2)cc1 | 0 | 3 | i | -2 | 11 | -6 | -10 | x
Cc1ccc(C(=O)N(C)CC(=O)Nc2ccc(N3CCOCC3)cc2)s1 | -1 | 2 | i | x | -13 | x | 2 | -18
CCCC(=O)NNC(=O)CCC(=O)Nc1ccccc1Cl | 1 | 7 | i | -12 | 4 | -4 | x | x
CCOc1ccccc1OCC(=O)OCC(=O)c1c(C)[nH]c2ccccc12 | -2 | 4 | i | x | -38 | x | -11 | x
CCc1ccc(OCCCC(=O)NCc2ccccc2)cc1 | -1 | 0 | i | 8 | 5 | 13 | 19 | -24

11 successive records already listed, for reference:
SMILES | MT1-MMP act inh | MT1-MMP act inh RFP | Rce1 inhib | eIF4H FP inh | Env fusion inh | PABP FP inh | CSC inhib | Yeast UUG start | others
Cc1ccc(NCc2nnc3n2CCCCC3)c(C)c1 | 2 | 5 | i | -3 | 10 | 9 | 6 | x
COc1ccccc1Oc1ccc2c(c1)C(=O)N(c1ccccc1)C2=O | 3 | -8 | i | -3 | 30 | -10 | -10 | -17
CCc1nc2ccc(C(=O)Nc3ccc(OC)c(OC)c3)cn2c1N(C)C(=O)Cc1ccccc1 | -4 | -2 | x | x | 27 | x | x | -18
CC(C)N1CCSC1=S | 0 | 1 | x | x | 6 | x | x | -11
N#C/C(C(N)=O)=C1/CCCN1Cc1ccccc1 | 3 | 5 | i | x | 24 | x | -2 | -16
CCN1CCN(CC(=O)Nc2cc(C)c(C)cc2[N+](=O)[O-])CC1 | 3 | 5 | i | 3 | -20 | 5 | 26 | x
Cc1noc(C)c1C(=O)OCC(=O)c1ccc[nH]1 | -4 | -3 | i | 5 | -129 | 8 | -7 | -23
Cc1ccc(CN2C(=O)N/C(=C/c3ccc(-c4ccc(C(=O)O)cc4)o3)C2=O)cc1 | -1 | -2 | i | 69* | -21 | 46* | -13 | x | eIF4H FP inh retest=97*;PABP FP inh retest=61*
Cc1nn(C)c(Cl)c1CN1CCN(CCC(C)C)C(CCO)C1 (stereo not given) | 8 | 8 | i | 0 | 5 | -6 | 0 | -14
Cc1ccc(CNC(=O)c2ccc(CS(=O)(=O)c3ccccc3C)o2)cc1 | 0 | 3 | i | -2 | 11 | -6 | -10 | x
Cc1ccc(C(=O)N(C)CC(=O)Nc2ccc(N3CCOCC3)cc2)s1 | -1 | 2 | i | x | -13 | x | 2 | -18

Continued.
SMILES | MT1-MMP act inh | MT1-MMP act inh RFP | Rce1 inhib | eIF4H FP inh | Env fusion inh | PABP FP inh | CSC inhib | Yeast UUG start | others
O=C(CSc1ccc(Br)cc1)Nc1ccc(N2CCOCC2)cc1 | 11 | 1 | i | x | -8 | x | x | -15
CCCOc1c(Br)cc(/C=N/O)cc1OC | -2 | 4 | i | -8 | x | -2 | -7 | x
CN1C(=O)c2ccccc2N(C)C1c1cccc(O)c1 (stereo not given) | 2 | -2 | i | 0 | 1 | -12 | -6 | -6
OCCCNC(=S)NC1CCCC1 | 1 | 0 | i | 6 | -7 | -6 | 19 | x
COc1ccc(N2CCN(C(=O)CSc3nnc(-c4cc5ccccc5cc4O)n3C)CC2)cc1 | 0 | -17 | x | 4 | 77* | -9 | 1 | -14
Cc1cc(=O)[nH]c2cc(O)ccc12 | 9 | 3 | u | -3 | x | -2 | -9 | -5
Cc1ccc(N2C(=O)CC(Sc3ncccc3C(=O)O)C2=O)cc1 (stereo not given) | 3 | 2 | i | 2 | 7 | -12 | -12 | x
C=CCOC(=O)C1=C(C)NC(=O)NC1c1cc2c(cc1Br)OCO2 (stereo not given) | -3 | 0 | i | -4 | -1 | 8 | -15 | -7
CC1(C)CC(=O)C2=C(C1)N(Cc1ccco1)C(=O)C2(NC(=O)c1cccnc1)C(F)(F)F (stereo not given) | 0 | 3 | i | -10 | 0 | -10 | -14 | -8
CNC(=O)COC(=O)c1ccc(NC(=O)CC#N)cc1 | 0 | 5 | i | 4 | x | 9 | -7 | -11
CCOc1ccccc1NC(=O)/C(C#N)=C/c1cccnc1 | -2 | 5 | i | 0 | -1 | -1 | -12 | 5
COc1ccc2c(c1)C(c1ccc(C)o1)=NNC(c1cccnc1)=N2 | 4 | 2 | i | 4 | 4 | 10 | -7 | -10
CC(=O)Nc1nc(C)c(Oc2ccc(Cl)cc2Cl)c(=O)[nH]1 | 3 | 2 | i | 18 | x | 3 | -16 | -13
Cc1cc(C)n(CCNC(=O)CC2C(=O)NCCN2Cc2ccccc2C(F)(F)F)n1 (stereo not given) | -4 | 2 | i | 12 | 2 | -1 | 2 | 1
Cc1c(NS(=O)(=O)c2cccc(C(=O)N3CCC(C)CC3)c2)c(=O)n(-c2ccccc2)n1C | 0 | 1 | x | x | -37 | x | -14 | -11
Cc1ccc(-n2c(C)nnc2SCC(=O)N2CCOCC2)cc1 | -1 | -1 | x | 1 | -29 | 2 | -8 | -7
CN(C)S(=O)(=O)c1ccc(NC=O)cc1 | -2 | 2 | i | -7 | -116 | -2 | -2 | x
Cc1ccccc1-c1cc2nc(NCCOc3ccccc3)n(C)c(=O)c2s1 | -2 | 0 | x | x | 5 | x | x | -11
O=C(CSCc1cccc(Cl)c1)N/N=C/c1ccc(OCC(=O)N2CCCCC2)cc1 | -4 | -16 | i | -6 | 48 | 4 | x | -22
COc1cc(C(=O)OCc2ccc(C)cc2)cc(NC(=O)c2cccs2)c1OC | -1 | -4 | i | -7 | 17 | -8 | -1 | x
Cc1ccnc(N2CCCC(C(=O)Nc3cccc(C)c3C)C2)n1 (stereo not given) | 1 | 2 | i | -1 | 11 | -8 | x | -5
COCC(C)n1c(C)cc(C(=O)COc2ccc(N(C)S(=O)(=O)c3ccc(NC(C)=O)cc3)cc2)c1C (stereo not given) | -11 | -11 | x | x | u | x | x | 30
CN(Cc1ccon1)Cc1cn(C)nc1-c1ccc2c(c1)OCCO2 | 0 | 5 | i | -7 | -1 | -2 | -19 | x
CC(C)C(=O)Nc1nnc(SCc2cccc(F)c2)s1 | 2 | -2 | i | -7 | -13 | -9 | 0 | x
CC(/C=C/c1ccco1)=N\NC(=O)c1cc(C)[nH]n1 | -1 | 8 | i | 86 | 1 | 28 | 2 | x | eIF4H FP inh retest=2;PABP FP inh retest=0
CCOC(=O)C1C(=O)OC2(CCCC2)C1C(=O)OCC (stereo not given) | 0 | 3 | i | -2 | -23 | 6 | 8 | 2
CCCCn1c(N)c(-c2nc3ccccc3s2)c2c([N+](=O)[O-])nn(CC)c(=O)c21 | 8 | -2 | i | -12 | 11 | -1 | -5 | -6
Cc1cc(C)cc(N/C(N)=N/c2nc(C)cc(C)n2)c1 | -14 | -7 | i | 4 | x | 7 | 5 | -16
COc1ccc(NC(=O)C23CC4CC(C2)CC(c2ccc(C)cc2)(C4)C3)cc1 | -20 | -10 | i | -9 | x | 16 | 38 | x
FC(F)(F)c1cccc(Cc2noc(CN3CCCCC3c3ccccn3)n2)c1 (stereo not given) | -2 | -3 | i | -10 | u | -3 | 2 | -13
CC(=O)c1ccc(S(=O)(=O)NC2CC(=O)N(c3ccc(Cl)cc3)C2)cc1 (stereo not given) | 3 | -8 | i | x | -21 | x | 0 | x
O=C(O)c1nn(CC(=O)N2CCN(c3ncc(C(F)(F)F)cc3Cl)CC2)c(=O)c2ccccc12 | -3 | -13 | i | -5 | 14 | 1 | 3 | -17
CCNC(=S)N(CCc1c(C)[nH]c2ccc(C)cc12)Cc1cccnc1 | 1 | 3 | i | -7 | 26 | -1 | -3 | -23
COC(=O)c1c(C)nsc1NC(=O)Oc1ccccc1 | -2 | -4 | i | -7 | 7 | 11 | 16 | x
Cc1ccc2[nH]c(-c3ccccc3)c(CN3CCOCC3)c(=O)c2c1 | 6 | 0 | i | -3 | x | -1 | 18 | -6
COc1ccc(NC(=O)CCc2nc(-c3ccc(C)cc3)no2)cc1Cl | 0 | -6 | i | 2 | x | -8 | -8 | 10
Cn1c(N)c(C(=O)COC(=O)C2(c3cccc(F)c3)CCCC2)c(=O)n(C)c1=O | 5 | -2 | i | 2 | x | 1 | -15 | -14
O=C(NCCN1CCOCC1)c1cc(-c2ccccc2)nc2ccccc12 | 1 | 1 | x | x | -3 | x | x | -15
CCOC(=O)/C(C#N)=C1/C=CN(C)C(C)=N1 | -10 | 1 | i | -1 | x | -6 | x | -6
Cc1ccc2nc(SCc3nc4ccccc4c(=O)[nH]3)[nH]c2c1 | -1 | -2 | i | 13 | -40 | -2 | 1 | -11
CCCCn1c(SCC(=O)NC2CC2)nc2ccccc2c1=O | 1 | 5 | i | -4 | -11 | -7 | 1 | 5
COc1ccc2[nH]c3nc(SCc4nnc(-c5ccc(C)cc5)o4)nnc3c2c1 | 2 | -4 | i | 24 | x | -3 | 6 | -14
COc1cccc(C(=O)N(C)CC(=O)Nc2ccc(F)c(F)c2F)c1 | -1 | 5 | i | -9 | 21 | 6 | -7 | -12
O=C(COc1ccc2ccc(=O)oc2c1)OCc1ccccc1 | 5 | 6 | i | -3 | 1 | 1 | -6 | x
Cc1nn(-c2ccc(F)cc2)c(Cl)c1/C=C/C(=O)N1CCNC(=O)C1 | 0 | -1 | i | 0 | -6 | 6 | 6 | x
Cc1ccc(-c2noc(CSc3nnc(-c4cccs4)n3C)n2)cc1 | 3 | 0 | i | -5 | 20 | -9 | -3 | -16
Cc1cc(C)cc(-n2ncc3c2CCCC3NC(=O)CN2CCCC2=O)c1 (stereo not given) | 0 | 3 | i | -4 | 0 | 9 | 1 | -20
COc1cccc(CNC(=O)C2=Cc3cccc(OC)c3OC2)c1 | -6 | 0 | i | -3 | 2 | 16 | -3 | 3

Not a hit list; about 2.9% have a hit in one of these screens.
